Mtb MbtI inh: MbtI salicylate synthase inhibitors, primary screen, biochemical, fluorescence intensity. purified MbtI enzyme, fluorescence intensity read-out. inhibition, %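 (about 17 µg/mL by stock and volumes)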. 100,000 tested, 0.89% active;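 active = above 50% in both replicates, above 80% if mildly self-fluorescent; inactive = the rest, strongly fluorescent compounds included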;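 note: 0% = mean of negative and 100% = mean of positive controls; one replicate is shown; some compounds called inactive have numbers as strong as hits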
Target sequence (P9WFX0 whole entry, looked up): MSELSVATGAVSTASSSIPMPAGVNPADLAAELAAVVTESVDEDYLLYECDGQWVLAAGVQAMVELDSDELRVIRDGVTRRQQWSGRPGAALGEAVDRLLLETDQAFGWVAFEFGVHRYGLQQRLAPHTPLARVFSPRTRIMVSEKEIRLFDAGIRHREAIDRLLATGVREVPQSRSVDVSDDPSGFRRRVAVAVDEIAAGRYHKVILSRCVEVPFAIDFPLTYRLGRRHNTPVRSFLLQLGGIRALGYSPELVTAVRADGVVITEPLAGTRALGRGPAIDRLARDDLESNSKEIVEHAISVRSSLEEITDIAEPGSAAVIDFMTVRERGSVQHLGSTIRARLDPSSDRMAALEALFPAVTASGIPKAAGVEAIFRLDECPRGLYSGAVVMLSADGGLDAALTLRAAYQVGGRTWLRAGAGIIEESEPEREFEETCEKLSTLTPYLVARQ
Polio RdRp inh: poliovirus RdRp elongation inhibitors, primary screen, biochemical, fluorescence polarization, total intensity. Genome polyprotein (Poliovirus type 1 (strain Mahoney)), P03300. poliovirus polymerase elongation; stronger effect = lower value. % elongation, % (compound at 16.7 µg/mL). 150,000 tested, 0.66% active; in the data active = % elongation below about 90%; note: some results filed as inactive read as strong as hits
Target sequence (P03300 1749-2209 limits assumed): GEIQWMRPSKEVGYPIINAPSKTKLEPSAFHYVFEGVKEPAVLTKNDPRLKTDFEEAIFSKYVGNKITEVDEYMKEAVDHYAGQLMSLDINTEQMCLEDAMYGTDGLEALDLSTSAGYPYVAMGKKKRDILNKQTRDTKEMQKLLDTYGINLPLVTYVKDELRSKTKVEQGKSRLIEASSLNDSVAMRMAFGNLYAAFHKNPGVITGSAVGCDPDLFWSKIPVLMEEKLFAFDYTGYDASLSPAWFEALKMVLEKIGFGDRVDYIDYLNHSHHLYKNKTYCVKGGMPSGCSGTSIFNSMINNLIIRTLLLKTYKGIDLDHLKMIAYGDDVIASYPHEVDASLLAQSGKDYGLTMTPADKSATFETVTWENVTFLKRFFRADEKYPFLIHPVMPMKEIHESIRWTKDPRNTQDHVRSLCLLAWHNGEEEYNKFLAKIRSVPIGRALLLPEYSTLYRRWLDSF
MenB inh: M. tuberculosis MenB inhibitors, primary screen, biochemical, absorbance; 1,4-dihydroxy-2-naphthoyl-CoA synthase (Mycobacterium tuberculosis (strain ATCC 25618 / …; MenB enzyme assay, absorbance read-out; some hits fall short of the stated cut; inhibition, %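 (about 12 µg/mL by stock and volumes)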; 100,000 tested, 0.43% active;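 active = mean of two replicates above 30%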;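 note: 0% = no compound and 100% = wells with inactive enzyme; the first replicate is given; strong numbers were not always called active; inactives centre near -10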
Polio RdRp inh intensity: second read-out of Polio RdRp inh, no call of its own (marks repeat the call); % elongation; measured here: total intensity read-out; formula for this scale not given here;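 total fluorescence in place of polarization; lower means less elongation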
The depositor's hits bear a star; . = no result given; & = joins results of further samples.

SMILES	Mtb MbtI inh	Polio RdRp inh	Polio RdRp inh intensity	MenB inh
O=C(CSc1nnc(Cc2ccccc2)n1Cc1ccccc1)Nc1nccs1	-5	102	102	-14
C=CCSc1ncc(C(=O)OCC)c(N)n1	4	104	103	-8
CCOC(=O)CN1C(=O)S/C(=C/c2cc(C)n(-c3cc(C)ccn3)c2C)C1=O	-3	103	104	-25
CCOC(=O)c1cc(C#N)c(N2CCNCC2)nc1C(F)(F)F	126	101	99	-25
Cc1ccc2c(CSc3nnc(C4CC4)n3N)cc(=O)oc2c1	4	101	103	-44
Cc1c(-c2cccc(Cl)c2)nc2ccccc2c1C(=O)N1CC(C)OC(C)C1 (configuration not stated)	-3	98	97	.
CCCC1c2ccsc2CCN1C(=S)NC (configuration not stated)	3	103	104	-9
CC(C)CC(C(N)=O)C1=NC(C)(C)Cc2ccccc21 (configuration not stated)	.	96	98	-26
NC(=O)CSCC(=O)Nc1ccccc1	-5	100	101	.
COC(=O)c1cc(-c2ccccc2)n(C)c1C	-3	107	101	-15
Cc1ccc(/C=C2\C(=O)N(c3ccccc3)c3ccccc32)o1	20	104	101	-20
Cc1cccc(NC(=O)C(F)(F)C(F)(F)C(F)(F)F)n1	59	100	101	12

Reprinted from the part before: 6 compounds, then new ones.
SMILES	Mtb MbtI inh	Polio RdRp inh	Polio RdRp inh intensity	MenB inh
CCCC1c2ccsc2CCN1C(=S)NC (configuration not stated)	3	103	104	-9
CC(C)CC(C(N)=O)C1=NC(C)(C)Cc2ccccc21 (configuration not stated)	.	96	98	-26
NC(=O)CSCC(=O)Nc1ccccc1	-5	100	101	.
COC(=O)c1cc(-c2ccccc2)n(C)c1C	-3	107	101	-15
Cc1ccc(/C=C2\C(=O)N(c3ccccc3)c3ccccc32)o1	20	104	101	-20
Cc1cccc(NC(=O)C(F)(F)C(F)(F)C(F)(F)F)n1	59	100	101	12
O=C(O)C12C3CCCC1C32c1ccccc1 (configuration not stated)	-14	103	101	-4
CCn1c(=O)cc(N2CCN(c3ccccc3)CC2)[nH]c1=O	14	99	100	17
O=C(NCCCN1CCCC1=O)c1ccc2c(c1)NC(=O)c1ccccc1S2	-1	106	99	-26
Cc1ccc(NCC(=O)N2CCN(c3ncccn3)CC2)cc1	5	99	106	1
COCCOC(=O)c1c(C)oc2cc(Br)c(OC(=O)c3ccc(OC)c(OC)c3)cc12	-3	102	102	-26
N#Cc1ccc(OCc2ccc(C(F)(F)F)cc2)c(Cl)c1	-6	108	110	-17
C=C1C(C(=O)Nc2ccc(OC)cc2)C1C(=O)Nc1ccc(OC)cc1 (configuration not stated)	-13	102	105	.
CC1Cc2ccccc2N1C(=O)CN(Cc1ccco1)S(=O)(=O)/C=C/c1ccccc1 (configuration not stated)	-10	98	107	-3
CN(C)/C=C(\C#N)C(=O)NC1CCCCC1	12	100	99	-4
O=C1/C(=C/C2CC=CCC2)SC(=S)N1CC1CCCO1 (configuration not stated)	7	101	105	1
C=CCN(CC=C)C(=O)CSc1nnc2c3ccccc3n(CC)c2n1	13	104	102	7
CCc1ccc(C(=O)Nc2ccc(Br)cn2)cc1	-3	99	100	2

Filtered by structure: those above with four or more nitrogen atoms.
SMILES	Mtb MbtI inh	Polio RdRp inh	Polio RdRp inh intensity	MenB inh
O=C(CSc1nnc(Cc2ccccc2)n1Cc1ccccc1)Nc1nccs1	-5	102	102	-14
CCOC(=O)c1cc(C#N)c(N2CCNCC2)nc1C(F)(F)F	126	101	99	-25
Cc1ccc2c(CSc3nnc(C4CC4)n3N)cc(=O)oc2c1	4	101	103	-44
CCn1c(=O)cc(N2CCN(c3ccccc3)CC2)[nH]c1=O	14	99	100	17
Cc1ccc(NCC(=O)N2CCN(c3ncccn3)CC2)cc1	5	99	106	1
C=CCN(CC=C)C(=O)CSc1nnc2c3ccccc3n(CC)c2n1	13	104	102	7

The listing continues.
SMILES	Mtb MbtI inh	Polio RdRp inh	Polio RdRp inh intensity	MenB inh
CCN1/C(=C2/SC(=S)N(C)C2=O)C=Cc2ccccc21	-6	101	103	-27
Nc1cc(=O)[nH]c(SCC(=O)Nc2cccc(C(F)(F)F)c2)n1	-7	102	98	-22
O=C(Cc1c[nH]c2ccccc12)NCc1ccccc1	-7	103	99	-1
CC(C)(C)C(=O)C1C2C3COC(O3)C(=O)C2C2C=Cc3ccccc3N21 (configuration not stated)	22	68	192	-6
COc1ccc(CC(=O)Nc2ccc(-c3n[nH]c(=S)s3)cc2)cc1	-26	101	103	-4
O=C(Nc1ccc(Oc2ccccc2)cc1)C1CC1	-10	99	103	-7
CCCNC(=O)c1ccccc1NC(=O)c1ccncc1	-18	102	103	2
COc1cccc(C(=O)NC(=O)c2oc3ccccc3c2C(N)=O)c1OC	-5	104	104	-1
CC1(C)O[C@@H]2C[C@H]3[C@@H]4C[C@H](F)C5=CC(=O)CC[C@]5(C)[C@H]4[C@@H](O)C[C@]3(C)[C@]2(C(=O)CO)O1	-6	101	102	4
Cc1ccc2c(c1)/C(=N/OCC(=O)NCCc1ccccc1)C(=O)N2	8	102	97	-3
CCOC(=O)c1cc2c(ccn2C)n1Cc1ccccc1C#N	4	101	104	-10
CC1(C)C(=O)Nc2ccccc2N1C(=O)COc1ccc2ccc(=O)oc2c1	105	103	108	-23

In the list so far, these have a Cl atom.
SMILES	Mtb MbtI inh	Polio RdRp inh	Polio RdRp inh intensity	MenB inh
Cc1c(-c2cccc(Cl)c2)nc2ccccc2c1C(=O)N1CC(C)OC(C)C1 (configuration not stated)	-3	98	97	.
N#Cc1ccc(OCc2ccc(C(F)(F)F)cc2)c(Cl)c1	-6	108	110	-17

(next part)
SMILES	Mtb MbtI inh	Polio RdRp inh	Polio RdRp inh intensity	MenB inh
O=C(NCc1ccccc1)c1cc(=O)[nH]c(=O)[nH]1	12	100	108	3
COC(=O)C(NC(=O)c1cc(-c2ccccc2)nc2ccccc12)C(C)C (configuration not stated)	-8	106	109	.
Cc1nnc2c3ccccc3c(N3CCCCC3)nn12	-2	99	102	19
CC(c1n[nH]c(=S)n1Cc1ccccc1)N(C)C (configuration not stated)	59*	98	100	-25
O=C1CC(c2ccco2)CC2=C1C(c1ccco1)Nc1ccccc1N2 (configuration not stated)	0	102	101	-13
O=C(On1c(-c2ccccc2)nc2ccccc2c1=O)c1cccc(C(F)(F)F)c1	-4	111	112	11
CCOC(=O)c1cc2sccc2n1CC(=O)N1CCCC1	7	102	103	-3
O=C(N1CCCCC1)N1CCN(C(c2ccccc2)c2ccccc2)CC1	-4	97	102	-16
COc1ccc(N2Cc3cccc(C(=O)NCCc4cccc(C)c4)c3C2=O)cc1	-7	101	103	-4
CCOC(=O)c1cnc(SC)nc1N	3	105	108	-10
CN1C(=O)N(C)C(O)C1O (configuration not stated)	14	104	100	-12
Cc1cc(=O)n2ncnc2n1CC(=O)N/N=C/c1ccc(Cl)cc1	-2	102	100	-5
Cc1cc(CNCc2ccc(CN(C)C)cc2)c(C)n1CC(C)C	0	104	115	12
O=C(NCC1CCCO1)c1ccc(N2CCSc3ncccc32)s1 (configuration not stated)	-45	100	104	1
O=C(COC(=O)CSc1n[nH]c(-c2ccccc2)n1)NC1CCCCC1	.	84*	82*	11
CC12CCC(=O)N1C(C(=O)OCc1cc(=O)n3cc(Br)ccc3n1)CS2 (configuration not stated)	-105	99	101	-19
COCc1cc(OC(=O)N(C)C)nc(COc2ccc(Cl)cc2)n1	-6	104	95	-1
CC1=C(C(=O)Nc2ccccc2C(=O)NCc2ccccn2)SCCO1	17	102	101	-17
COc1cc(OC)cc(C(=O)OC2CCCCC2=O)c1 (configuration not stated)	-9	105	109	0
CC(C)(C)C(=O)N1CCCC(c2nc3c(nnn3Cc3ccc(C(C)(C)C)cc3)c(=O)[nH]2)C1 (configuration not stated)	5	100	101	-65
c1cc2c(s1)CCNC2C1CC1 (configuration not stated)	5	101	103	22
CN(C)S(=O)(=O)c1ccc(SCC(=O)NC(=O)NC2CCCC2)nc1	2	100	114	9
c1ccc(Cn2c3ccccc3n3ncnc23)cc1	2	96	97	.
O=C(O)COc1c(Cl)cc(C=C2C(=O)NC(=S)NC2=O)cc1Cl	8	101	102	-24
O=C1CS(=O)(=O)C(c2ccc(Oc3ccccc3)cc2)N1c1ccccc1 (configuration not stated)	.	109	113	-11
NNc1c(O)c(C(=O)O)cc2ccccc12	2	107	102	-50
O=C(Nc1ccccc1I)c1ccccc1	-16	104	111	-14
CCN(CC)C(=N)/C(C#N)=N\Nc1ccc(C)cc1	24	99	101	-242
CC(=O)NCCC(=O)Nc1nc(SCc2ccc(Cl)cc2)n[nH]1	-11	106	109	-5
Cc1cc(C)n2nc(C(=O)OCC(=O)NC3CCCCC3)nc2n1	2	100	99	-16
Oc1c(Cl)cc(Cl)cc1Sc1cc(Cl)cc(Cl)c1O	-92	98	98	-10
C#CCSc1nc2ccccc2c(=O)[nH]1	87	100	100	-30
O=C(Nc1ccc(F)cc1F)Nc1ccccc1C(=O)NCCN1CCNC1=O	-10	104	105	-26
Cc1ccc(CNC(=O)CN(Cc2ccccc2)S(=O)(=O)c2ccccc2)cc1	1	103	97	-5
Clc1ccc(-c2csc(NNC3=NCCCCC3)n2)cc1	18	95	98	-36
COC(=O)c1cc(/C=C/C(=O)O)oc1C	17	99	106	11
COc1ccc(CCN(C)Cn2c(=O)oc3ccccc32)cc1OC	-2	102	104	9
CCOC(=O)N1CCN(C(=O)c2ccc(CS(=O)Cc3ccc(C)cc3)o2)CC1 (configuration not stated)	-2	99	101	17
Cc1ccc(C)c(NC(=O)Cn2cccc2)c1	-2	102	107	-6
CN(C)S(=O)(=O)c1ccc(N2CCCCC2)c(C(=O)Nc2ccc3c(c2)OCO3)c1	0	101	100	-39
CCN(CC)S(=O)(=O)c1ccc2c(c1)nc(CCC(=O)OCC(N)=O)n2C	-14	105	113	-12
CC1CN(CCC(=O)Nc2ccc3c(c2)OCO3)CC(C)O1 (configuration not stated)	-11	102	102	16
COc1ccc(CNC(=O)COC(=O)CC2CCCC2)cc1	-11	104	108	.
Cc1ccc(S(=O)(=O)N(CC(=O)N2CCCCC2)C2CCCCC2)cc1	-7	103	101	-6
Cc1ccc(C2C3CCCC=C3C(C#N)C(N)C2(C#N)C#N)s1 (configuration not stated)	.	114	159	-12
COc1ccc(-c2noc(CN(C3CCCCC3)S(=O)(=O)c3ccc(F)cc3)n2)cc1	-6	106	102	-6
NCCOc1ccccc1	14	102	106	-27
O=C(NC1CCCC1)c1noc2c1CCCCC2	0	100	104	-21

Some of the entries so far, as a markdown table:
| Molecule | Mtb MbtI inh | Polio RdRp inh | Polio RdRp inh intensity | MenB inh |
| --- | --- | --- | --- | --- |
| Cc1ccc(C)c(NC(=O)Cn2cccc2)c1 | -2 | 102 | 107 | -6 |
| CN(C)S(=O)(=O)c1ccc(N2CCCCC2)c(C(=O)Nc2ccc3c(c2)OCO3)c1 | 0 | 101 | 100 | -39 |
| CCN(CC)S(=O)(=O)c1ccc2c(c1)nc(CCC(=O)OCC(N)=O)n2C | -14 | 105 | 113 | -12 |
| CC1CN(CCC(=O)Nc2ccc3c(c2)OCO3)CC(C)O1 (configuration not stated) | -11 | 102 | 102 | 16 |

(cont.)
SMILES	Mtb MbtI inh	Polio RdRp inh	Polio RdRp inh intensity	MenB inh
COc1ccc(CN2C(=O)C3(OCCCO3)c3ccccc32)cc1	0	103	105	-37
CCOC(=O)c1cc(C)n(CC(=O)O)c1C	1	96	105	11
O=C(C1=NN(c2ccccc2)C(=O)CC1)N1CCN(Cc2ccc3c(c2)OCO3)CC1	-4	102	108	-11
COC(=O)Nc1nc2ccc(-c3n[nH]c(=O)c4ccccc34)cc2[nH]1	-3	98	104	-4
CC(C)C(=O)Nc1cccc(C(=O)Nc2ccccc2)c1	4	100	100	-14
CCOC(=O)C1CCN(C(=O)CSc2ccc3ccccc3c2)CC1	1	99	103	.
CCN(CC)CC(=O)Nc1c(C)cccc1C	-3&-12&-2	100&98&99&100	103&102&101&99	2&6&-6
O=C1CCCN2N=C(SCC(=O)Nc3cccc4ccccc34)SC2=N1	2	100	104	-3
CSc1nc(/N=C/N(C)C)n2nc(C)cc2n1	-3	102	104	-7
O=C(CSc1ccc2ccccc2c1)NCCCN1CCCC1=O	8	103	104	.
O=c1cc(CN2CCc3ccccc32)occ1OCc1ccc(Cl)cc1	10	105	104	-31
